Screens from PubChem BioAssay.
Ba CapD inh: Bacillus anthracis CapD inhibitors, primary screen, biochemical, fluorescence intensity; CapD gamma-glutamyltranspeptidase (Bacillus anthracis Ames Ancestor); purified CapD enzyme, fluorescence intensity read-out; stronger effect = lower value; some hits fall short of the stated cut; z-score (test concentration not listed); 0.23% of 140,000 active; AID 492967, 2010;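 active = z-score under -4 in either of two replicates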;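 also: stock transfer was 100 nL into about 40 µL; score is relative to mean and spread of the plate; one replicate is shown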
AID504770: growth inhibition of E. coli YBA685, primary screen, V. cholerae RctB inhibitors; E. coli YBA685 rctB-dependent plasmid, OD600 growth, 3 h; stronger effect = lower value; z-score (no concentration beside the values); 0.27% of 130,000 active;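 active = z-score under -2 on both plates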;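 also: wells of about 30 µL received 100 nL stock; score is relative to mean and SD of the test wells; the first replicate is given; strong numbers were not always called active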
* marks the source's active call; other numbers are inactive results; . = no result given.

SMILES | Ba CapD inh | AID504770
Cn1c(Br)nc2c1c(=O)n(Cc1ccccc1Cl)c(=O)n2C | -0.05 | .
CN(C)Cn1c(O)c(N=NC(=O)CO/N=C/c2ccccc2)c2ccccc21 | 0.025 | 1.4
O=C(CN1CCN(CC(=O)N2CCCC2)CC1)NC(=O)Nc1ccccc1F | . | 0.2
O=C(c1cccc(C(F)(F)F)c1)N(CCSCc1cc2cccc3c2n(c1=O)CCC3)Cc1ccccn1 | 0.17 | .
CCOc1cc2sc(N3CCC(C(=O)N(C)Cc4ccccc4)CC3)nc2cc1Br | 0.35 | -0.6
O=P1(c2ccccc2O)COc2ccccc2OC1 | 0.6 | -0.65
CCOC(=O)C1=C(O)/C(=C/c2ccccc2)SC1=Nc1cccc(Cl)c1 | -0.49 | .
CCOc1ccc(C2OC3(C(=O)c4ccccc4C3=O)C3C(=O)N(c4ccc(C)cc4)C(=O)C23)cc1 (stereo not given) | -0.06 | .
CCN(C(=O)C(C)Sc1nc(C)cs1)c1ccccc1 (stereo not given) | . | 2.2
O=C(O)CCC(=O)c1ccc(Br)cc1 | -1.3 | -3.1*
CCOC(=O)CSc1nc2ccccc2n2cnnc12 | -0.12 | -0.55
O=C(/C=C/c1cc(Cl)c2c(c1)OCCO2)N1CCCN(S(=O)(=O)c2ccc(F)cc2)CC1 | . | -0.15
O=C(Cn1c(=O)c2cccn2c2ccccc21)NCCCN1CCCCC1 | 0.27 | 0.25
CC1CC(=O)Nc2ccccc2N1C(=O)CSc1nnc(COc2ccccc2Cl)n1C1CC1 (stereo not given) | . | 0.2
COC(=O)C1=C(C(=O)OC)SC2(S1)C(C(=O)OC)=C(C(=O)OC)SC1=C2c2ccccc2NC1(C)C | -0.33 | .
CCOC(=O)C1=C(C)NC(C)=C(C(=O)OCC)C1c1ccc(OC(=O)c2ccc(C)cc2)c(OC)c1 | 8.4 | .
O=C(C1CC1c1ccccc1)N1CCOCC1 (stereo not given) | 0.2 | 0.15
CCC(C)NCc1ccc(C(=O)OC)o1 (stereo not given) | 0.32 | -0.6
CCOc1ccccc1CNC(=O)Cc1cccs1 | -0.28 | 0.7
CCN(CC(=O)NCc1cccs1)C(=O)C1=COCCO1 | . | -0.45
CC1CN(S(=O)(=O)c2ccc(C(=O)N3CCc4ccccc43)cc2)CC(C)O1 (stereo not given) | . | -1
Cc1sc(-c2ccccc2)nc1CC(=O)NNC(=O)c1cc2ccccc2s1 | 4.7 | .
C=CCNc1oc(CC(C)C)nc1C#N | 0.41 | -0.2
Cc1cccc(C(O)(C(=O)NN(C(=O)c2ccccc2C(=O)Oc2ccccc2)c2ccccc2)c2cccc(C)c2)c1 | -0.21 | .
O=C1/C(=C/c2cccc(Cl)c2)CC/C1=C\c1cccc(Cl)c1 | 33 | -0.5

Additional results
SMILES | Ba CapD inh | AID504770
CCOC(=O)C1CCN(c2ccc3nncn3n2)CC1 | -0.5 | -2.2
NS(=O)(=O)c1cc([N+](=O)[O-])c(N2CCNCC2)s1 | -1.1 | .
COc1cc(-c2c(C#N)c(N)n3c(nc4ccccc43)c2C#N)ccc1OCc1ccccc1 | 0.61 | .
CC(=O)Nc1cc(C(=O)NC2CC2)ccc1S(=O)(=O)c1ccc(Cl)cc1 | -0.58 | -0.9
OCCCCCCNC(=S)Nc1ccc(F)cc1Br | -0.2 | .
CCCCC1CCC(C(=O)N2CC(C(N)=O)Oc3ccccc32)CC1 (stereo not given) | . | 1.6
CCN(CC)c1ccc2cc(-c3csnn3)c(=O)oc2c1 | 0.065 | 0.25
CN(C(=O)COC(=O)c1ccc(C#N)cc1)c1ccccc1 | 0.02 | 1.8
S=P12CN3CN(CN(C3)C1)C2 | . | -0.15
CC(C)(C)c1ccc(C(=O)N2CCN(c3cccc4[nH]ccc34)CC2)cc1 | -0.13 | 1.7
Cc1ccccc1CSCc1nnc(-c2ccccc2)o1 | . | 0.15
Oc1ccc2ccccc2c1C=Nc1ccccc1 | -2.6 | 0.55
COc1cc(C2(c3ccc(N)c(OC)c3)CCCCC2)ccc1N | 0.39 | -0.3
Cc1ccc(-n2nc3c(c2NC(=O)c2ccc(S(=O)(=O)N4CCCCC4)cc2)CS(=O)(=O)C3)cc1 | -0.4 | .
CC1Oc2ccccc2OC1(O)c1ccc(Br)cc1 (stereo not given) | 0.14 | -0.5
Cc1ccc(S(=O)(=O)N(Cc2ccco2)CC2CCCO2)cc1[N+](=O)[O-] (stereo not given) | -0.01 | .
CN1CCN(/C=C(\C#N)S(=O)(=O)c2ccc(Cl)cc2)CC1 | 0.37 | .
COc1cc(N(C(=O)c2ccco2)C(C(=O)NC2CCCC2)c2ccc(C)cc2)ccc1-n1cnnn1 (stereo not given) | . | -0.15
CC1CCN(C(=O)CSc2nc(NCc3ccc4c(c3)OCO4)c3ccccc3n2)CC1 | -0.14 | .
Nc1nc(N)nc(-c2ccccc2C(F)(F)F)n1 | -0.015 | -0.25
CCCc1[nH]nc2c1C(c1ccc(OC(=O)N3CCOCC3)c(OCC)c1)C(C#N)=C(N)O2 (stereo not given) | 1.3 | .
O=C1CCCCC1Cc1c(O)ccc2ccccc12 (stereo not given) | 1.1 | -0.9
CC1=CCC2C(=O)N(C(C)c3ccccc3)C(=O)C2C1 (stereo not given) | -0.42 | -0.45
O=C(/C=C/c1cccs1)N1CCN(Cc2ccc(Br)s2)CC1 | . | 0.35
Cc1cc(NC(=O)c2cccs2)cc(C)c1OCC(=O)N1CCOCC1 | -1.1 | 1.9

19 entries out of the list, arranged by molar mass, lowest first:
SMILES | Ba CapD inh | AID504770
Oc1ccc2ccccc2c1C=Nc1ccccc1 | -2.6 | 0.55
CC1=CCC2C(=O)N(C(C)c3ccccc3)C(=O)C2C1 (stereo not given) | -0.42 | -0.45
CN(C(=O)COC(=O)c1ccc(C#N)cc1)c1ccccc1 | 0.02 | 1.8
Cc1ccccc1CSCc1nnc(-c2ccccc2)o1 | . | 0.15
CCN(CC)c1ccc2cc(-c3csnn3)c(=O)oc2c1 | 0.065 | 0.25
CC1Oc2ccccc2OC1(O)c1ccc(Br)cc1 (stereo not given) | 0.14 | -0.5
CN1CCN(/C=C(\C#N)S(=O)(=O)c2ccc(Cl)cc2)CC1 | 0.37 | .
CCCCC1CCC(C(=O)N2CC(C(N)=O)Oc3ccccc32)CC1 (stereo not given) | . | 1.6
OCCCCCCNC(=S)Nc1ccc(F)cc1Br | -0.2 | .
CC(C)(C)c1ccc(C(=O)N2CCN(c3cccc4[nH]ccc34)CC2)cc1 | -0.13 | 1.7
Cc1cc(NC(=O)c2cccs2)cc(C)c1OCC(=O)N1CCOCC1 | -1.1 | 1.9
Cc1ccc(S(=O)(=O)N(Cc2ccco2)CC2CCCO2)cc1[N+](=O)[O-] (stereo not given) | -0.01 | .
CC(=O)Nc1cc(C(=O)NC2CC2)ccc1S(=O)(=O)c1ccc(Cl)cc1 | -0.58 | -0.9
O=C(/C=C/c1cccs1)N1CCN(Cc2ccc(Br)s2)CC1 | . | 0.35
COc1cc(-c2c(C#N)c(N)n3c(nc4ccccc43)c2C#N)ccc1OCc1ccccc1 | 0.61 | .
CC1CCN(C(=O)CSc2nc(NCc3ccc4c(c3)OCO4)c3ccccc3n2)CC1 | -0.14 | .
CCCc1[nH]nc2c1C(c1ccc(OC(=O)N3CCOCC3)c(OCC)c1)C(C#N)=C(N)O2 (stereo not given) | 1.3 | .
COc1cc(N(C(=O)c2ccco2)C(C(=O)NC2CCCC2)c2ccc(C)cc2)ccc1-n1cnnn1 (stereo not given) | . | -0.15
Cc1ccc(-n2nc3c(c2NC(=O)c2ccc(S(=O)(=O)N4CCCCC4)cc2)CS(=O)(=O)C3)cc1 | -0.4 | .

(listing goes on)
SMILES | Ba CapD inh | AID504770
COc1ccc(-n2c(SCC(=O)N3CCCCC3)nc3c([nH]c4ccccc43)c2=O)cc1 | 0.44 | -0.5
CCN(CC)C(=S)SCc1cc(=O)n2ccsc2n1 | . | 0.95
COC(CN(C)C(=O)c1ccc2c(c1)NC(=O)c1ccccc1S2)OC | -6* | -1.2
Cc1csc(-c2ccc(O)cc2)n1 | . | -0.9
Cc1cc(/C=C/c2ccc3cc(N(C)C)ccc3[n+]2C)c(C)n1-c1ccccc1 | -0.7 | -0.3
CCOC(=O)C1=C(N)Oc2cc(O)ccc2C1c1ccccc1 (stereo not given) | -0.35 | .
Cc1ccc(Oc2ncccc2NS(C)(=O)=O)c2c1CCC2 | -1.1 | -0.75
Cc1ccc(-c2nc3cc(NC(=O)CC(C)C)ccc3o2)cc1Cl | 7.3 | 1.4
COc1ccccc1CN(C)C(=O)CN1CCN(C/C=C/c2ccccc2)CC1 | . | -1.4
CCC(C)(C)NC(=O)Cc1ccc(C)cc1 | 0.56 | -0.35
CC(=O)N1CC2c3ccccc3CCN2C1c1ccccc1 (stereo not given) | 17 | 0.5
Cc1ccc2nc3c(N)c(Cl)cc4c3c(c2c1)-c1ccccc1C4=O | -0.35 | .
COc1ccc(NC(=S)NNC(=O)c2ccncc2)cc1 | -0.62 | .
CC1(C)CC(=O)C2=C(C1)OC1=C(C(=O)CC(C)(C)C1)C2c1ccccc1C(=O)O | -0.095 | .
CC(C)OC(=O)CN1C(=O)C(C)(C)Oc2ccc(C(=O)Nc3ccccc3)cc21 | . | 1.1
CCN(CC)S(=O)(=O)c1ccc2c(c1)nc(SCC(=O)Nc1cccc(C)c1C)n2CC | . | 0.15
CCOc1ccc2c(c1)C(SCC(=O)N1CCN(c3ncccn3)CC1)CC1(CCCCC1)O2 (stereo not given) | 0.28 | 0.7
CN(C)c1ccc(/C=C(\C#N)NC(=O)c2ccccc2)cc1 | 0.5 | 1.3
Clc1ccc(-c2nnc(COc3ccc(Cl)cc3Cl)o2)cc1 | -0.88 | .
O=C1CCCc2nc(-c3ccc(OCc4ccc(C(F)(F)F)cc4)cc3)ncc21 | -0.2 | .
CCOc1ccc(N=C2SC(C(=O)Nc3ccccc3OC)CC(=O)N2Cc2ccc3c(c2)OCO3)cc1 (stereo not given) | 0.64 | .
O=C1NC2(CCCCC2)C(=O)N1c1ccc(C(F)(F)F)cc1 | . | 0.1
O=C1NC(=O)C(CCCCO)N1 (stereo not given) | -0.015 | 0.8
CC(C)c1ccc(CO)cc1 | . | 1.1
CC1CN(C2CC(C)(C)NC(C)(C)C2)CCC1=O (stereo not given) | 0.21 | -1.3

The results go on.
SMILES | Ba CapD inh | AID504770
Cc1cn2c3c(=O)n(C)c(=O)n(C)c3nc2n1CCO | -0.69 | 0.2
CC12NC(=O)CN1CCc1ccccc12 (stereo not given) | 0.81 | -0.35
COc1ccc(C2C(C#N)=C(N)OC3=C2C(=O)CC(C)(C)C3)c(CN2CCCc3ccccc32)c1 (stereo not given) | 0.025 | .
O=C1/C(=C/c2ccc(Cl)cc2)C=C(c2ccccc2)N1c1ccc(F)cc1 | -0.66 | .
CC(=O)Oc1ccc(C2Nc3ccc(C)cc3C3C=CCC32)c(OC(C)=O)c1 (stereo not given) | 0.035 | .
O=C(CC(SC1CCCCC1)C(=O)O)c1ccc(Br)cc1 (stereo not given) | -0.58 | 1.2
CCOCc1cc(-c2csc(N)n2)ccc1OC | . | 0.55
CNCC(O)c1ccc(O)cc1 (stereo not given) | -0.53 | .
CC(NC(=O)Oc1ccccc1)C(c1cccs1)N1CCN(c2ccccc2)CC1 (stereo not given) | 0.48 | 0.8
Cc1cc(OC(=O)C(c2ccccc2)C2CCCC2)c(Cl)c(C)c1Cl (stereo not given) | -0.09 | .
Clc1ccc(-c2nc3ncccc3n2OCc2ccccc2Cl)cc1 | 56 | .
Cc1ccc(NC(=O)N2CCOc3ccc(Cl)cc32)c(C)c1 | -0.77 | -0.2
CC1Cc2ccccc2N1C(=O)Cn1nnc(-c2ccccc2F)n1 (stereo not given) | . | -0.3
CC(C)N(C(=O)COc1c(CO)cc(Br)cc1CO)c1ccccc1 | . | 1.6
CCCc1ccc(-c2ccc(C(N)=O)cc2)cc1 | 0.33 | 0.3
CCCc1[nH]n(-c2ccc(F)cc2)c(=O)c1C=NCC(O)c1ccccc1 (stereo not given) | -0.78 | .
Cc1cccc(N2C(=O)CC(N(O)c3ccccc3)C2=O)c1C (stereo not given) | -0.04 | 0
COc1cc(NC(=O)Cn2cnc3c2c(=O)n(C)c(=O)n3C)cc(OC)c1OC | -0.75 | -1
CCSCCOC(=O)C1=C(C)NC2=C(C(=O)CCC2)C1c1cc2c(cc1Br)OCO2 (stereo not given) | 8.7 | .
CS(=O)(=O)Nc1ccccc1C(=O)NC1CCCC1 | 31 | 0.25
CN1C(=O)Cc2cc(S(=O)(=O)N3CCc4ccccc43)ccc21 | . | -1.2
CCOC(=O)c1cn2ccccc2c1C(=O)OCC | 84 | -0.5
Cc1[nH]c(C)c(S(=O)(=O)NCCc2ccccc2)c1C(=O)N1CCCC1 | 0.6 | 0.5
CC1CCc2c(sc3nc(CN4CCCC4)[nH]c(=O)c23)C1 (stereo not given) | . | 0.75
CC(C)c1ccc(CCN)cc1 | . | -1

New compounds follow
SMILES | Ba CapD inh | AID504770
Cc1ccc(N2CCN(S(=O)(=O)c3ccc(Cl)c(Cl)c3)CC2C)cc1 (stereo not given) | 0.27 | .
CCOC(=O)Cc1csc(SCn2nnc3ccccc3c2=O)n1 | . | 0.05
COc1cccc(NC(=O)CSc2nc(NC3CCCCC3)c3ccccc3n2)c1 | 3.1 | .
COc1ccccc1OCCn1c(=O)sc2ccccc21 | -0.56 | 0.25
CN1CCN(C(=S)NC(CC(=O)c2ccccc2)c2ccccc2)CC1 (stereo not given) | 0.39 | -0.75
O=c1cc(CSc2nc3ccccc3c3nc4ccccc4n23)nc2ccc(Cl)cn12 | 0.07 | .
COc1ccc(CNC(=O)c2cc(OC)c(OC)c(OC)c2)cc1 | -0.91 | -0.85
CCC(=O)Nc1nc2nc(COC)cc(=O)n2[nH]1 | 2.2 | -0.4
COc1ccc(C2CC(Cn3cc(C#N)c(=O)n(C)c3=O)ON2C)cc1 (stereo not given) | -0.1 | .
CCOc1ncccc1C(=O)Nc1cc(C(C)(C)C)ccc1OC | . | 0.05
Cc1ccccc1Nc1c(N)c(=O)oc2ccccc12 | -0.24 | 0.95
Cc1ccc(O)c(C(=O)c2cnc3c(c2)CN(CCC(C)C)C(=O)N3)c1 | . | 0.4
